High-throughput results deposited in PubChem by Broad Institute.
Ran importin: RanGTP/importin-beta interaction disruptors – biochemical, CFP-Ran/YFP-importin-beta FRET, RCC1, cell-free, primary screen (AID 434961). inhibition, %. 7,700 compounds, 0.2% hits. CFP-Ran/YFP-importin-beta FRET, cell-free; stronger effect = higher value;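 active means more than half of the replicate wells above 15% inhibition; inconclusive means exactly half above it; inactive means fewer than half above it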;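 further: 0% = DMSO wells and 100% inhibition = RanGDP control wells on each plate; stock of unstated strength diluted about 400-fold; mean of two wells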
An asterisk follows results filed as active; ? = inconclusive. This is a subset; the hit share may differ from the screen's.

Ran importin	mol
2.3	C[C@@H]1CN([C@H](C)CO)C(=O)c2cccc(NS(=O)(=O)c3cn(C)cn3)c2O[C@@H]1CN(C)S(=O)(=O)c1ccc(F)cc1
6.1	C[C@@H]1CN([C@H](C)CO)C(=O)c2cc(NS(=O)(=O)c3cccs3)ccc2O[C@@H](C)CCCCO[C@@H]1CN(C)Cc1ccccc1
19*	C[C@H]1CN([C@@H](C)CO)C(=O)c2cccc(NC(=O)c3ccc(-c4nccs4)cc3)c2O[C@H]1CN(C)C(=O)Nc1ccccc1
?	C[C@@H]1CN([C@@H](C)CO)C(=O)c2cc(NC(=O)Nc3ccc(F)cc3)ccc2O[C@@H]1CN(C)S(=O)(=O)c1cn(C)cn1
-1.4	Cc1noc(C)c1NC(=O)Nc1cccc2c1O[C@H](CN(C)CC1CC1)[C@@H](C)CN([C@@H](C)CO)C2=O
3.4	COc1ccc(NC(=O)Nc2ccc3c(c2)C(=O)N([C@H](C)CO)C[C@@H](C)[C@H](CN(C)S(=O)(=O)c2cccs2)O3)cc1
0.9	COc1ccc(S(=O)(=O)Nc2cccc3c2O[C@@H](CN(C)Cc2ccc4c(c2)OCO4)[C@@H](C)CN([C@@H](C)CO)C3=O)cc1
-2.8	C[C@@H]1CN([C@@H](C)CO)C(=O)c2cc(NS(=O)(=O)c3cn(C)cn3)ccc2O[C@@H]1CN(C)Cc1ccccc1
5.5	C[C@H](CO)N1C[C@H](C)[C@H](CN(C)C(=O)Nc2ccc3c(c2)OCO3)Oc2ccc(NS(=O)(=O)c3ccccc3)cc2CC1=O
-2.6	C[C@H](CO)N1C[C@H](C)[C@@H](CN(C)Cc2ccccc2)Oc2ccc(N(C)C)cc2CC1=O
0.5	C[C@@H]1CN([C@H](C)CO)C(=O)CCCn2nncc2CO[C@@H]1CN(C)S(=O)(=O)c1ccc(Cl)cc1
?	C[C@@H]1CN([C@@H](C)CO)C(=O)Cc2cc(NS(=O)(=O)c3cn(C)cn3)ccc2O[C@H]1CN(C)S(=O)(=O)c1cn(C)cn1
-2.7	C[C@@H]1CCCCO[C@H](CN(C)S(=O)(=O)c2ccccc2)[C@@H](C)CN([C@@H](C)CO)C(=O)c2cc(NC(=O)CCCN(C)C)ccc2O1
3.3	C[C@@H]1CCCCO[C@@H](CN(C)S(=O)(=O)c2ccccc2)[C@@H](C)CN([C@@H](C)CO)C(=O)c2cc(NS(=O)(=O)c3ccccc3)ccc2O1
5.9	Cc1noc(C)c1S(=O)(=O)N(C)C[C@@H]1OCc2cnnn2CCCC(=O)N([C@H](C)CO)C[C@@H]1C

Looked up by structure from above:
Ran importin	mol
0.5	C[C@@H]1CN([C@H](C)CO)C(=O)CCCn2nncc2CO[C@@H]1CN(C)S(=O)(=O)c1ccc(Cl)cc1
-2.7	C[C@@H]1CCCCO[C@H](CN(C)S(=O)(=O)c2ccccc2)[C@@H](C)CN([C@@H](C)CO)C(=O)c2cc(NC(=O)CCCN(C)C)ccc2O1
19*	C[C@H]1CN([C@@H](C)CO)C(=O)c2cccc(NC(=O)c3ccc(-c4nccs4)cc3)c2O[C@H]1CN(C)C(=O)Nc1ccccc1

Continuation.
Ran importin	mol
-3.3	CNC[C@@H]1Oc2ccc(NC(=O)NC(C)C)cc2CC(=O)N([C@@H](C)CO)C[C@@H]1C
5.3	C[C@@H]1CN([C@H](C)CO)C(=O)CCCn2nncc2CO[C@H]1CN(C)Cc1ccc2c(c1)OCCN2C
-5.5	Cc1noc(C)c1NC(=O)N(C)C[C@@H]1Oc2ccc(NC(=O)Nc3ccc(F)cc3)cc2C(=O)N([C@@H](C)CO)C[C@@H]1C
2.0	C[C@H](CO)N1C[C@H](C)[C@@H](CN(C)S(=O)(=O)c2cn(C)cn2)Oc2ccc(NC(=O)Nc3ccc4c(c3)OCO4)cc2C1=O
3.5	C[C@H](CO)N1C[C@H](C)[C@H](CN(C)C(=O)NC2CCCCC2)Oc2ccc(NC(=O)Cn3cnnn3)cc2C1=O
0.4	CC(C)NC(=O)N(C)C[C@H]1Oc2ccc(NS(=O)(=O)c3ccccc3)cc2CC(=O)N([C@@H](C)CO)C[C@H]1C
0.3	COc1ccc(S(=O)(=O)N(C)C[C@H]2Oc3ccc(NC(=O)CCC(F)(F)F)cc3C(=O)N([C@H](C)CO)C[C@H]2C)cc1
-3.9	C[C@@H]1CN([C@H](C)CO)C(=O)Cc2cc(NC(=O)Nc3ccc(F)cc3)ccc2O[C@H]1CN(C)C(=O)NC1CCCCC1
3.4	C[C@H](CO)N1C[C@H](C)[C@@H](CN(C)S(=O)(=O)c2ccccc2)Oc2ccc(NC(=O)NC3CCCCC3)cc2C1=O
5.2	C[C@@H]1CN([C@@H](C)CO)C(=O)c2cc(NC(=O)Nc3ccc4c(c3)OCO4)ccc2O[C@H]1CN(C)C
1.6	COc1ccccc1CN(C)C[C@@H]1OCc2cn(nn2)CCCC(=O)N([C@@H](C)CO)C[C@H]1C
-3.4	C[C@@H]1CN([C@@H](C)CO)C(=O)CCCn2cc(nn2)CO[C@H]1CN(C)C(=O)Nc1ccc(-c2cccs2)cc1
2.7	C[C@H](CO)N1C[C@H](C)[C@H](CN(C)Cc2ccc(C(=O)O)cc2)Oc2c(NC(=O)Nc3cccc4ccccc34)cccc2C1=O
5.5	C[C@@H]1CN([C@@H](C)CO)C(=O)Cc2cc(NC(=O)Nc3ccc4c(c3)OCO4)ccc2O[C@H]1CN(C)CC1CC1
?	COc1ccc(S(=O)(=O)Nc2ccc3c(c2)C(=O)N([C@H](C)CO)C[C@H](C)[C@@H](CN(C)CC2CC2)O3)cc1

Copied from the list.
`C[C@H](CO)N1C[C@H](C)[C@@H](CN(C)S(=O)(=O)c2cn(C)cn2)Oc2ccc(NC(=O)Nc3ccc4c(c3)OCO4)cc2C1=O` in Ran importin is listed with 2.0
`C[C@H](CO)N1C[C@H](C)[C@H](CN(C)Cc2ccc(C(=O)O)cc2)Oc2c(NC(=O)Nc3cccc4ccccc34)cccc2C1=O` in Ran importin is listed with 2.7
`CNC[C@@H]1Oc2ccc(NC(=O)NC(C)C)cc2CC(=O)N([C@@H](C)CO)C[C@@H]1C` in Ran importin is listed with -3.3
`COc1ccccc1CN(C)C[C@@H]1OCc2cn(nn2)CCCC(=O)N([C@@H](C)CO)C[C@H]1C` in Ran importin is listed with 1.6
`C[C@@H]1CN([C@H](C)CO)C(=O)Cc2cc(NC(=O)Nc3ccc(F)cc3)ccc2O[C@H]1CN(C)C(=O)NC1CCCCC1` in Ran importin is listed with -3.9
`C[C@@H]1CN([C@@H](C)CO)C(=O)CCCn2cc(nn2)CO[C@H]1CN(C)C(=O)Nc1ccc(-c2cccs2)cc1` in Ran importin is listed with -3.4
`CC(C)NC(=O)N(C)C[C@H]1Oc2ccc(NS(=O)(=O)c3ccccc3)cc2CC(=O)N([C@@H](C)CO)C[C@H]1C` in Ran importin is listed with 0.4

(further entries)
Ran importin	mol
-1.2	C[C@@H]1CCCCO[C@@H](CN(C)S(=O)(=O)c2cccs2)[C@H](C)CN([C@H](C)CO)C(=O)c2cc(NS(C)(=O)=O)ccc2O1
-2.3	C[C@@H]1CN([C@H](C)CO)C(=O)c2cccc(NS(=O)(=O)c3cn(C)cn3)c2O[C@H]1CN(C)Cc1ccc(Cl)c(Cl)c1
-1.3	C[C@@H]1CN([C@@H](C)CO)C(=O)Cc2cc(NC(=O)CCC(F)(F)F)ccc2O[C@@H]1CN(C)C(=O)Nc1ccccc1
8.3	Cc1noc(C)c1NC(=O)N(C)C[C@H]1Oc2ccc(NC(=O)Nc3cccc4ccccc34)cc2C(=O)N([C@H](C)CO)C[C@@H]1C
1.9	Cc1ccc(S(=O)(=O)N(C)C[C@H]2Oc3ccc(NS(C)(=O)=O)cc3C(=O)N([C@@H](C)CO)C[C@@H]2C)cc1
-1.3	C[C@H]1CN([C@@H](C)CO)C(=O)CCCn2cc(nn2)CO[C@H]1CN(C)S(=O)(=O)c1ccccc1
1.6	C[C@@H]1CCCCO[C@@H](CN(C)Cc2ccc3c(c2)OCO3)[C@H](C)CN([C@H](C)CO)C(=O)c2cc(NS(=O)(=O)c3ccccc3)ccc2O1
-0.1	C[C@H](CO)N1C[C@H](C)[C@H](CN(C)C(=O)Cc2ccccc2)OCCCC[C@H](C)Oc2ccc(N(C)C)cc2C1=O
-3.1	COc1ccc(NC(=O)Nc2cccc3c2O[C@H](CN(C)S(=O)(=O)c2ccc(OC)cc2)[C@H](C)CN([C@H](C)CO)C3=O)cc1
1.7	Cc1noc(C)c1S(=O)(=O)N(C)C[C@H]1Oc2ccc(NC(=O)C3CCCCC3)cc2CC(=O)N([C@@H](C)CO)C[C@H]1C
11	Cc1noc(C)c1NC(=O)N(C)C[C@H]1Oc2ccc(NC(=O)c3ccncc3)cc2CC(=O)N([C@@H](C)CO)C[C@H]1C
6.3	C[C@@H]1CN([C@H](C)CO)C(=O)c2cc(NS(=O)(=O)c3ccccc3)ccc2O[C@@H](C)CCCCO[C@@H]1CN(C)C(=O)c1ccncc1
-2.5	C[C@@H]1CCCCO[C@@H](CN(C)C(=O)Nc2ccccc2)[C@H](C)CN([C@H](C)CO)C(=O)c2cc(NC(=O)Nc3ccccc3)ccc2O1
6.0	C[C@H](CO)N1C[C@H](C)[C@H](CN(C)Cc2ccc(Cl)c(Cl)c2)Oc2ccc(NC(=O)c3ccncc3)cc2CC1=O
0.1	C[C@H]1CN([C@@H](C)CO)C(=O)c2cc(NC(=O)Nc3ccccc3)ccc2O[C@H]1CN(C)C(=O)Nc1ccc(C(F)(F)F)cc1
3.3	C[C@@H]1CN([C@@H](C)CO)C(=O)c2cc(NC(=O)Nc3ccccc3)ccc2O[C@@H](C)CCCCO[C@@H]1CN(C)C(=O)CCCN(C)C
-5.7	C[C@@H]1CCCCO[C@H](CN(C)S(=O)(=O)c2ccc(F)cc2)[C@@H](C)CN([C@@H](C)CO)C(=O)c2cc(NC(=O)c3ccncc3)ccc2O1
-7.9	C[C@@H]1CN([C@H](C)CO)C(=O)c2cc(N(C)C)ccc2O[C@@H](C)CCCCO[C@@H]1CN(C)S(=O)(=O)c1ccccc1
1.2	C[C@H](CO)N1C[C@H](C)[C@H](CN(C)C(=O)Nc2ccc(C(F)(F)F)cc2)Oc2c(NS(C)(=O)=O)cccc2C1=O
0.5	C[C@@H]1CN([C@H](C)CO)C(=O)c2cccc(NC(=O)Nc3ccc(F)cc3)c2O[C@H]1CN(C)S(=O)(=O)c1ccc(Cl)cc1
-3.7	COc1ccc(S(=O)(=O)Nc2cccc3c2O[C@@H](CN(C)Cc2ccc4c(c2)OCO4)[C@H](C)CN([C@@H](C)CO)C3=O)cc1
3.1	Cc1noc(C)c1NC(=O)N(C)C[C@@H]1Oc2c(NC(=O)c3nc4ccccc4s3)cccc2C(=O)N([C@@H](C)CO)C[C@H]1C
-2.7	CC(C)NC(=O)Nc1ccc2c(c1)C(=O)N([C@H](C)CO)C[C@@H](C)[C@H](CN(C)C(=O)Cc1ccccc1)OCCCC[C@@H](C)O2
-1.7	C[C@@H]1CCCCO[C@H](CN(C)C(=O)C2CCCCC2)[C@@H](C)CN([C@H](C)CO)C(=O)c2cc(NS(=O)(=O)c3cccs3)ccc2O1
4.5	C[C@H]1CN([C@@H](C)CO)C(=O)CCCn2nncc2CO[C@@H]1CN(C)C(=O)Nc1ccccc1F
2.4	C[C@@H]1CCCCO[C@H](CN(C)C(=O)CCC(F)(F)F)[C@H](C)CN([C@@H](C)CO)C(=O)c2cc(NS(C)(=O)=O)ccc2O1
-1.8	Cc1noc(C)c1NC(=O)N(C)C[C@@H]1Oc2ccc(NC(=O)C3CC3)cc2C(=O)N([C@@H](C)CO)C[C@H]1C
1.5	CC(C)NC(=O)N(C)C[C@H]1OCCCC[C@@H](C)Oc2ccc(N(C)C)cc2C(=O)N([C@H](C)CO)C[C@@H]1C
-1.0	C[C@@H]1CN([C@H](C)CO)C(=O)c2cccc(NC(=O)NC3CCCCC3)c2O[C@@H]1CN(C)C(=O)Nc1ccccc1
2.0	CC(C)NC(=O)N(C)C[C@H]1Oc2ccc(NC(=O)CCC(F)(F)F)cc2CC(=O)N([C@H](C)CO)C[C@H]1C
-2.9	C[C@H](CO)N1C[C@H](C)[C@@H](CN(C)S(=O)(=O)c2ccccc2)Oc2c(NC(=O)Nc3ccc4c(c3)OCO4)cccc2C1=O
0.6	C[C@H]1CN([C@@H](C)CO)C(=O)c2cc(NC(=O)CCCN(C)C)ccc2O[C@H]1CN(C)Cc1ccc2c(c1)OCO2
-2.3	C[C@H](CO)N1C[C@H](C)[C@H](CN(C)C(=O)Nc2ccc(F)cc2)Oc2ccc(NS(=O)(=O)c3ccc(Cl)cc3)cc2CC1=O
5.6	CNC[C@@H]1Oc2ccc(NS(=O)(=O)c3cccs3)cc2CC(=O)N([C@@H](C)CO)C[C@H]1C
-0.6	CC(C)NC(=O)N(C)C[C@H]1OCCCC[C@H](C)Oc2ccc(N(C)C)cc2C(=O)N([C@@H](C)CO)C[C@@H]1C
?	C[C@@H]1CCCCO[C@H](CN(C)C(=O)c2ccccc2)[C@H](C)CN([C@H](C)CO)C(=O)c2cc(NS(=O)(=O)c3cn(C)cn3)ccc2O1
-2.4	COc1ccc(S(=O)(=O)Nc2ccc3c(c2)CC(=O)N([C@H](C)CO)C[C@H](C)[C@H](CN(C)CC2CC2)O3)cc1
-5.1	C[C@H]1CN([C@@H](C)CO)C(=O)c2cccc(NS(C)(=O)=O)c2O[C@@H]1CN(C)Cc1ccc(C(F)(F)F)cc1
3.2	C[C@@H]1CCCCO[C@@H](CN(C)C(=O)Cc2ccccc2)[C@@H](C)CN([C@H](C)CO)C(=O)c2cc(NC(=O)Nc3ccc(F)cc3)ccc2O1
8.3	C[C@@H]1CCCCO[C@H](CN(C)S(=O)(=O)c2cccs2)[C@@H](C)CN([C@@H](C)CO)C(=O)c2cc(NC(=O)Cc3ccccc3)ccc2O1
-2.6	C[C@H]1CN([C@@H](C)CO)C(=O)Cc2cc(NC(=O)Cc3ccccc3)ccc2O[C@H]1CN(C)C(=O)Nc1ccccc1
9.1	Cc1noc(C)c1S(=O)(=O)Nc1ccc2c(c1)CC(=O)N([C@H](C)CO)C[C@H](C)[C@H](CN(C)C)O2
-0.9	C[C@@H]1CN([C@H](C)CO)C(=O)c2cc(NC(=O)c3ccncc3)ccc2O[C@H]1CN(C)C
-0.8	Cc1noc(C)c1NC(=O)Nc1ccc2c(c1)CC(=O)N([C@H](C)CO)C[C@@H](C)[C@H](CN(C)S(=O)(=O)c1cccs1)O2
